Screening data: PubChem BioAssay, National Center for Advancing Translational Sciences (NCATS)
Rango complex inh: qHTS Assay for Inhibitors of Rango (Ran-regulated importin-beta cargo) - Importin beta complex formation. Potency, µM (titrated, usually from 92.2 µM), for the others: at the top dose inhibition of complex formation. Rango CFP/YFP FRET sensor + importin beta, 45 min. AID 540263, 2011. 340,000 tested, 0.031% active; active = rising FRET ratio curve, often small or poorly fitted; inconclusive = mostly compound fluorescence or quenching in the first reads; inactive = flat curves in all reads;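 note: potency is the fitted concentration of half-maximal effect; 0% = DMSO wells and 100% = buffer wells lacking importin beta; nearly all actives have a fitted effect of over 15% in size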
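FRET biosensor (snurportin 1 IBB flanked by EYFP and cerulean), 50 nM, with compound 5 min, then 0.125 microM importin beta in PBS, 1 mM DTT, 0.02% Tween-20, 0.1% BSA. CFP/YFP ratio read after 45 min at room temperature; pre-read flags interference.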
GLA inh pH 4.5: qHTS Assay for Inhibitors of Human alpha-Galactosidase at pH 4.5. Alpha-galactosidase A (Homo sapiens), P06280. purified enzyme, 4-MU-alpha-Gal fluorescence, pH 4.5. activity change, negative = inhibition, % at 105 µM. 230,000 tested, under 10 active. AID 1467, 2008; inconclusive = small, poorly fitted or top-dose-only inhibition, or a rising curve; inactive = flat fitted curve, though single readings scatter; no compound was filed as active;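 note: 0% = full activity with enzyme and -100% = basal without enzyme; dose as in the result columns while the protocol names 77 µM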
Target sequence (P06280 whole entry, looked up): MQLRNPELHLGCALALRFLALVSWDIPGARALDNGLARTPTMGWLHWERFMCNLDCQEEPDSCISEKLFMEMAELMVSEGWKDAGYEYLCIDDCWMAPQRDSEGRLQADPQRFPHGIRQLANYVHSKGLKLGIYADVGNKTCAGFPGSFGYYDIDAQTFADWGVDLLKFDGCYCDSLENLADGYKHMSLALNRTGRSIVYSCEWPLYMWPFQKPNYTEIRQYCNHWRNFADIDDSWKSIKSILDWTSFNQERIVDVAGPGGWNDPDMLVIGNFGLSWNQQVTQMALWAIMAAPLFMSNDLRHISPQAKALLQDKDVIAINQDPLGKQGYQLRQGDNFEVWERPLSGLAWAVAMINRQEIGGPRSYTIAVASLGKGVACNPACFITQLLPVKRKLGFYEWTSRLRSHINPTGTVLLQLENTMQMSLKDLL
Rango release inh: qHTS Assay for Inhibitors of RanGTP induced Rango (Ran-regulated importin-beta cargo) - Importin beta complex dissociation; Snurportin-1 (Homo sapiens) + GTP-binding nuclear protein Ran (Homo sapiens) + Importin …; Biochemical FRET Rango-importin beta, RanGTP-induced dissociation; Potency, µM (highest dose often 46.1 µM), for the others: at the highest dose activity change, negative = inhibition; 340,000 tested, 0.071% active; active means falling FRET ratio curve, often poorly fitted, with flat reads before Ran was added; inconclusive means other falling curves, or compound fluorescence or quenching; inactive means flat or rising ratio curve;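 note: potency is the fitted concentration of half-maximal effect; % of control where 0% means no effect; nearly all actives have a fitted effect of over 45% in size; -100% = wells without RanGTP and RCC1; the record marks most hits as doubtful in a second field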
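Recombinant Rango FRET biosensor (EYFP–snurportin 1 IBB–cerulean CFP10) at 0.1 uM premixed with 0.25 uM importin beta in PBS, 1 mM DTT, 0.02% Tween-20, 0.1% BSA. Compound added 5 min; RanGTP-RCC1 (0.6 uM Ran, 2 mM GTP, 0.2 uM RCC1) then triggers release, read at 45 min.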
miR-21 reporter: qHTS Assay for Modulators of miRNAs and/orActivators of miR-21 | HeLa miR-21 FLuc reporter, luciferase, 48 h | Potency, µM (series often up to 38.3 µM), for the others: top-dose reporter change, positive = more light | 340,000 tested, under 10 active; active = well fitted rising curve with a large enough effect; inconclusive = small, poorly fitted or top-dose-only effect; inactive = no such curve, though single readings can be large or run the other way;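 note: % of control where 0% means no effect; miR-21 action dims this reporter so a rising signal means less miR-21 action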
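Luminescence from a firefly luciferase reporter carrying a miR-21 binding site downstream, stably expressed under a CMV promoter in HeLa cells that make miR-21 endogenously, reports miRNA modulation after 48 h compound exposure up to approximately 40uM final.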
Starred values were filed as active, the others as inactive; u = inconclusive; x = no result given. Not all compounds are listed. The share of hits here may be higher or lower than overall.

1. O=C(Cn1c(CO)nc2ccccc21)Nc1cc(C(F)(F)F)ccc1N1CCOCC1
2. Cc1cc(NC(=O)CCC(=O)N(c2ccccc2)C(C(=O)NC2CCCC2)c2ccc(F)cc2)no1 (stereo unspecified)
3. N#Cc1cc(C#N)c(N2CCN(c3ccccn3)CC2)nc1N
4. C=Cn1cc[n+](CC(=O)c2ccc(Br)s2)c1
5. CCc1ccc(NC(=O)N2CCN(C(=O)C3CCCO3)CC2)cc1 (stereo unspecified)
6. C[C@H](CO)N1C[C@H](C)[C@@H](CN(C)S(=O)(=O)c2ccccc2)Oc2ccc(NC(=O)C3CC3)cc2C1=O
assay / compound | 1 | 2 | 3 | 4 | 5 | 6
Rango complex inh | -1.6% | u | u | 0.9% | -2.3% | -3.3%
GLA inh pH 4.5 | -4 | x | 8 | x | x | x
Rango release inh | -4% | -20% | u | -15% | 9% | 2%
miR-21 reporter | -10% | -5% | -53% | 1% | -10% | x

7. COc1ccccc1CCNC(=O)c1nccnc1C(=O)O
8. c1cncc(C(c2nnnn2C2CCCC2)N2CCN(Cc3ccc4c(c3)OCO4)CC2)c1 (stereo unspecified)
9. C[C@H]1CN([C@@H](C)CO)C(=O)c2cccc(NC(=O)c3ccncc3)c2O[C@H]1CN(C)C(=O)Nc1ccccc1
10. Cn1c(=O)c2c(nc(NCc3ccco3)n2Cc2ccccc2Cl)n(C)c1=O
11. Cc1ccc2nc(SCCCCOc3ccccc3)[nH]c2c1
12. Cc1sc2ncnc(NCC(c3ccccc3)N(C)C)c2c1C (stereo unspecified)
assay / compound | 7 | 8 | 9 | 10 | 11 | 12
Rango complex inh | -3.0% | -4.0% | -1.1% | 0.1% | -0.9% | -1.5%
GLA inh pH 4.5 | x | -2 | x | -5 | -9 | x
Rango release inh | -10% | 14% | 7% | 8% | -7% | -7%
miR-21 reporter | -1% | -7% | x | -4% | -10% | -9%

13. CCN(CC)C(=O)CSc1nc2ccccc2n1CC(=O)N1CCN(c2ccccc2OC)CC1
14. Cc1cccc(CCNC(=O)c2oc3c(C)c(C)ccc3c2C)n1
15. CCN1CCN(c2oc(-c3ccc(OC)cc3)nc2C#N)CC1
16. CC(NS(=O)(=O)c1ccc(Br)cc1)C(c1cccs1)N1CCN(C)CC1 (stereo unspecified)
17. CCOC(=O)C1=C(C)NC(C)=C(C(=O)OCC)C1c1cccc(C)n1
18. O=C(COc1ccc(Cl)cc1Cl)NN1C(=O)C2C3C=CC([C@@H]2C1=O)C31CC1 (stereo partly specified)
assay / compound | 13 | 14 | 15 | 16 | 17 | 18
Rango complex inh | -1.5% | -1.7% | -4.4% | -0.9% | -5.1% | 0.4%
GLA inh pH 4.5 | 5 | x | x | 1 | -7 | -1
Rango release inh | -16% | -16% | 1% | -16% | -16% | 22%
miR-21 reporter | 0% | -1% | x | -2% | -5% | 0%

19. Cc1nn(C)c(C)c1NS(=O)(=O)c1cccc(Br)c1
20. Cc1ccc(/C=N/N(Cc2ccccc2)c2ccccc2)o1
21. COc1c(S(=O)(=O)NCCCn2ccnc2)ccc(Cl)c1Cl
22. O=C(NCCN1CCN(c2ccccc2F)CC1)C1CCCN(S(=O)(=O)c2cnc[nH]2)C1 (stereo unspecified)
23. O=C(NCCN1CCOCC1)c1cnn2c1NC(c1cccs1)CC2C(F)(F)F (stereo unspecified)
24. Cc1ccc(N2CCN(C(=S)c3ccc(N(C)C)cc3)CC2)cc1
assay / compound | 19 | 20 | 21 | 22 | 23 | 24
Rango complex inh | u | -1.5% | 1.2% | 2.4% | 5.4% | 0.6%
GLA inh pH 4.5 | x | 0 | x | -10 | 6 | -25
Rango release inh | -9% | -15% | -2% | 16% | 2% | -17%
miR-21 reporter | x | -3% | -8% | 3% | -11% | -31%

25. COc1ccc(C(=O)NCCNc2ccccc2[N+](=O)[O-])cc1
26. Cc1cc(NC(=O)CCSc2ccccc2)ccc1Br
27. COc1ccc(OC)c(-n2c(=S)[nH]c3cc(C(=O)N(C)Cc4ccccc4)ccc3c2=O)c1
28. C[C@@]12C(=O)Nc3ccc(F)cc3C(=O)N1[C@H]1c3ccccc3OC[C@@H]1[C@@H]2c1ccccc1
29. O=C(CN1CCC(NC(=O)Nc2ccccc2)CC1)Nc1ccccc1F
30. O=C1CCCC(=NNC(=O)c2cc3ccccc3cc2O)C1
assay / compound | 25 | 26 | 27 | 28 | 29 | 30
Rango complex inh | -1.2% | -0.8% | -0.4% | 0.8% | -0.5% | u
GLA inh pH 4.5 | -8 | -5 | 6 | x | x | x
Rango release inh | 15% | -5% | 5% | 0% | -3% | u
miR-21 reporter | -54% | -66% | 10% | x | 0% | x

31. Cn1nnnc1Sc1c(Cl)cccc1[N+](=O)[O-]
32. O=C(COC(=O)c1c[nH]c(=O)[nH]c1=O)Nc1ccccc1F
33. COc1ccccc1Nc1nc2ccccc2n1C
34. N#C/C(=C\c1c(N2CCC(C(N)=O)CC2)nc2ccccn2c1=O)C(=O)NC1CCCCC1
35. CCOC(=O)Cc1[nH]nc2c1C(c1cc(OC)ccc1OC)C(C#N)=C(N)O2 (stereo unspecified)
36. Cc1ccc(C(=O)O)cc1NC(=S)NC(=O)c1ccc([N+](=O)[O-])c(C)c1
assay / compound | 31 | 32 | 33 | 34 | 35 | 36
Rango complex inh | -0.9% | 3.7% | -1.7% | -4.4% | -1.1% | -3.1%
GLA inh pH 4.5 | 2 | 1 | -2 | x | 13 | 2
Rango release inh | 0% | 1% | 35% | 11% | 0% | 11%
miR-21 reporter | 16% | 1% | -55% | -7% | 0% | -3%

37. COC(=O)C(C(=O)OC)C(C[N+](=O)[O-])c1ccc(O)c(OC)c1 (stereo unspecified)
38. COc1ccc(NC(=O)C2CCN(S(=O)(=O)c3cccc4nonc34)CC2)c(OC)c1
39. CC(C)c1cccc(C(C)C)c1NC(=O)CN1C(=O)NC2(CCCCCCC2)C1=O
40. COCCOC(=O)C1=C(C)NC(=O)NC1c1cccc(F)c1 (stereo unspecified)
41. Cc1nonc1C(=O)N/N=C/c1ccc(O)cc1
42. COc1ccc(-c2cc(C(=O)N3CCN(c4ccccc4)CC3)c3ccccc3n2)cc1OC
assay / compound | 37 | 38 | 39 | 40 | 41 | 42
Rango complex inh | 3.5% | -0.4% | 1.1% | -2.1% | -2.3% | -2.3%
GLA inh pH 4.5 | -4 | x | x | x | 0 | -6
Rango release inh | -6% | 7% | 8% | 6% | 0% | -5%
miR-21 reporter | 4% | -1% | x | 1% | -13% | 22%

43. Cc1ccc(N2CCN(S(=O)(=O)c3nnc(NC(=O)c4ccco4)s3)CC2)cc1
44. COc1ccc(Cn2c(SCC#N)nc3ccc(N4CCOCC4)cc3c2=O)cc1
45. COc1ccc(-c2nn(-c3ccccc3)cc2C(=O)N(C)CC(=O)Nc2cccc(F)c2)cc1
46. COc1ccc(NC(=O)c2cc(C)no2)cc1OC
47. O=C(COc1ccc2c3c(c(=O)oc2c1)CCCC3)NC(Cc1ccc(Cl)cc1)C(=O)O (stereo unspecified)
48. CCN(CC)CCNC(=O)C(=O)Nc1ccc2c(c1)N(S(=O)(=O)c1cccs1)CCC2
assay / compound | 43 | 44 | 45 | 46 | 47 | 48
Rango complex inh | 4.7% | u | u | -0.9% | -0.8% | -0.1%
GLA inh pH 4.5 | x | -3 | x | x | x | x
Rango release inh | -11% | -13% | -1% | -7% | 3% | 19%
miR-21 reporter | 0% | -63% | x | -1% | 3% | x

Profiles, looked up by structure:
Results for COc1ccc(Cn2c(SCC#N)nc3ccc(N4CCOCC4)cc3c2=O)cc1 → Rango complex inh = u; GLA inh pH 4.5 = -3; Rango release inh = -13%; miR-21 reporter = -63%
Results for Cc1ccc(N2CCN(S(=O)(=O)c3nnc(NC(=O)c4ccco4)s3)CC2)cc1 → Rango complex inh = 4.7%; GLA inh pH 4.5 = x; Rango release inh = -11%; miR-21 reporter = 0%
Results for COc1ccc(-c2nn(-c3ccccc3)cc2C(=O)N(C)CC(=O)Nc2cccc(F)c2)cc1 → Rango complex inh = u; GLA inh pH 4.5 = x; Rango release inh = -1%; miR-21 reporter = x

Other structures.
49. COc1cccc(OCC(=O)Nc2ccncc2)c1
50. Cn1c(SCC(=O)NC2CCCC2)nnc1-c1cccs1
51. Cc1cc(OCC(=O)O/N=C(\N)c2ccccc2)ccc1Cl
52. CC(NC(=O)C(=O)c1cn(CC(=O)N2CCOCC2)c2ccccc12)c1ccccc1 (stereo unspecified)
53. CCC(C)N=Cc1c(Nc2ccccc2)nc2c(C)cccn2c1=O (stereo unspecified)
54. COc1ccc(S(=O)(=O)N2CCOCC2)cc1NC(=O)COC(=O)C1CCC1
assay / compound | 49 | 50 | 51 | 52 | 53 | 54
Rango complex inh | -1.5% | -1.5% | 1.4% | -1.5% | -0.1% | -2.8%
GLA inh pH 4.5 | x | x | -17 | x | 2 | x
Rango release inh | 0% | -2% | -6% | -10% | 4% | -21%
miR-21 reporter | 4% | -1% | -18% | 0% | -4% | x

55. COC(=O)c1ccc(N2CCOCC2)c(NC(=O)c2cccs2)c1
56. CC1(C)Cc2cccc(C(=O)Nc3ccc(F)cc3F)c2O1
57. CCOC(=O)C(C)Sc1snnc1C (stereo unspecified)
58. CCOc1cc(/C=C/C(=O)O)ccc1OCc1ccccc1
59. CC(=O)N(c1ccccc1C)c1ccccc1C
60. CCOc1ccc(N(CC(=O)NCc2ccc(OC)cc2)C(=O)CCC(=O)Nc2nccs2)cc1
assay / compound | 55 | 56 | 57 | 58 | 59 | 60
Rango complex inh | 0.8% | -3.1% | 9.8% | -0.5% | 1.2% | -0.4%
GLA inh pH 4.5 | x | -12 | x | -10 | x | x
Rango release inh | 1% | 0% | -7% | 7% | -5% | -4%
miR-21 reporter | 1% | -5% | x | 1% | x | -3%

61. O=C(Cn1ncc2c1-c1ccccc1OC2)N1CCN(c2ccccn2)CC1
62. CCCOc1cccc(C(=O)Nc2ccc(Br)cc2F)c1
63. CCOC(=O)N1CCN(C(=O)c2cccc(F)c2)CC1
64. CC1=NN(c2ccc(Br)cc2)C(=O)/C1=C/c1cccs1
65. CCOC(=O)Cc1c[nH]c(=S)[nH]c1=O
66. C=CCn1c(SCC(=O)Nc2sc3c(c2C#N)CCC3)nnc1C1COc2ccccc2O1 (stereo unspecified)
assay / compound | 61 | 62 | 63 | 64 | 65 | 66
Rango complex inh | -0.3% | 3.1% | 2.9% | -7.6% | 0.1% | u
GLA inh pH 4.5 | 2 | -6 | 5 | 2 | 8 | -11
Rango release inh | -2% | 1% | 39% | 4% | -3% | -2%
miR-21 reporter | -8% | -67% | 0% | 0% | 1% | -3%

67. CCOc1ccccc1N(C(=O)CNC(=O)c1ccco1)C(C(=O)NC1CCCC1)c1ccncc1 (stereo unspecified)
68. Cc1ccc(S(=O)(=O)c2cnc(-c3ccccc3)nc2N2CCCCC2)cc1
69. N#C/C(=C\c1ccc(Sc2nc3ccccc3[nH]2)o1)c1ccccc1
70. CCN(CC)C(=O)CSc1nnc2cc(C)c3ccccc3n12
71. Cc1onc(-c2ccccc2)c1C(=O)OCCOc1ccc([N+](=O)[O-])cc1[N+](=O)[O-]
72. Cc1ccc2nc(-c3ccncc3)cc(C(=O)Nc3ccncc3)c2c1
assay / compound | 67 | 68 | 69 | 70 | 71 | 72
Rango complex inh | 1.9% | -0.8% | u | -1.0% | 3.1% | -1.3%
GLA inh pH 4.5 | x | 3 | -16 | 7 | x | x
Rango release inh | 4% | -14% | 1% | -13% | 29% | 11%
miR-21 reporter | -8% | -8% | 16% | -11% | 21% | -3%
